# Source: PubChem BioAssay
# hNpr1 antagonist: Natriuretic polypeptide receptor (hNpr1) antagonism - Primary qHTS; 76,000 tested, 1.6% active; Potency, µM (highest dose often 46.3 µM), for inactives: at the top dose activity change, negative = inhibition, actives largely listed as inhibitors; AID 1347048, 2019; HEK293 hNpr1 GloSensor cGMP, ANP-stimulated luminescence; Atrial natriuretic peptide receptor 1 (Homo sapiens), P16066; active = well fitted inhibition curve with a large enough effect; inconclusive = small, poorly fitted or top-dose-only effect; inactive = no such curve, though single readings can be large or run the other way;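 note: nearly all actives have a fitted effect of over 60% in size; nearly all hits also lower the signal before the agonist is added; a reference antagonist and vehicle were the controls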
# Target sequence (P16066 whole entry, looked up): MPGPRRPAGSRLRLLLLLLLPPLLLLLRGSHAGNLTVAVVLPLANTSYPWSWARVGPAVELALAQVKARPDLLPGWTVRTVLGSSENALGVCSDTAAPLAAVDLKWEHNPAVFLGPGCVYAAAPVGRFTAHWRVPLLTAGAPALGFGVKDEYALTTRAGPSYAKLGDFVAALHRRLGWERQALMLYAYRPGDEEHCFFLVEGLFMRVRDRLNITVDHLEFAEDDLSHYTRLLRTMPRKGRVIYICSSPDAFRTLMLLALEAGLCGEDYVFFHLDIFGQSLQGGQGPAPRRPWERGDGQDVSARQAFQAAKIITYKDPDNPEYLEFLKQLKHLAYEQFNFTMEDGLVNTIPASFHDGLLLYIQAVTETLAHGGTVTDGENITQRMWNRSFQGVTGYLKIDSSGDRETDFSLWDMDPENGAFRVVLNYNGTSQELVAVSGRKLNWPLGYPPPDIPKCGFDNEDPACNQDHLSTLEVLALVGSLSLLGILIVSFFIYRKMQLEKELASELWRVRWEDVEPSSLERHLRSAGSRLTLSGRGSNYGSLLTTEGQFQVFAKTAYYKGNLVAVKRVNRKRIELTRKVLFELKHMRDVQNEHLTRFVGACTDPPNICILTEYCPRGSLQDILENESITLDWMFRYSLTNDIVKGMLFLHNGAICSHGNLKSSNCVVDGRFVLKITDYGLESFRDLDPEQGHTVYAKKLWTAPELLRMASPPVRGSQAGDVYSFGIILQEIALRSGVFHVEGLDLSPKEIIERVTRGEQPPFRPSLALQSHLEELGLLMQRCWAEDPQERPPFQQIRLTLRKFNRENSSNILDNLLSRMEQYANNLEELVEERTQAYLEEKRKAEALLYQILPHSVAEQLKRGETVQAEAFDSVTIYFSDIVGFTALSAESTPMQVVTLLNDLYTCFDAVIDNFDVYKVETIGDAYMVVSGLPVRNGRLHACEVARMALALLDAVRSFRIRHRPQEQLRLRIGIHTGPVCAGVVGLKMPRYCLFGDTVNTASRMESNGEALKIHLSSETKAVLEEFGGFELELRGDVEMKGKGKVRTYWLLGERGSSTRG
#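 HEK293 cells stably expressing human Npr1 and cGMP GloSensor pGS-40F, loaded 2 h with 2% GloSensor reagent, given compound 30 min at room temperature. Luminescence read before and 20 min after 0.1 nM hNppA.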
# The depositor's hits bear a star; ? = inconclusive; [ ] = another dose, or the depositor's remark. % is set by controls: 0 for no effect and ±100 for the full control effect; potency is the fitted concentration of half-maximal effect. A portion of the library, so the mix of outcomes need not match the whole.
SMILES,hNpr1 antagonist
NC(=O)Cn1ccc2cc(OCC3CCN(C(=O)COc4ccccc4)CC3)cnc21,-12.2%[70.6 µM]
OC[C@@H]1CNC[C@H]1C1CCN(C2CNC2)CC1,2.3%
COCC(=O)NC1CCC12CCN(C(=O)NCc1ccccc1)CC2 (centres undefined),1.1%
Cc1cccc(CN2C[C@@H]3C(=O)N(CCCN4CCCC4=O)C(=O)[C@@H]3C2)c1,-1.1%
O=S(=O)(NC[C@H]1COCc2nc3cccnc3n21)c1ccc(Cl)cc1,?
COCC(=O)N1CCC(Oc2ccccc2C(=O)N(C)Cc2ncccc2C)CC1,2.8%
COc1ccc(CN2C(=O)O[C@@H]3CN(C(=O)NC(C)(C)C)C[C@@H]32)cc1OC,-2.4%
COCCNC(=O)CCCN1C(=O)COc2ccc(C(=O)COc3ccccc3Cl)cc21,-3.5%
COc1ccc(C2Cn3nnc(C(=O)NCc4ccc(F)cc4Cl)c3CO2)cc1 (centres undefined),-4.3%
O=C(C[C@H]1NC(=O)c2ccccc2NC1=O)Nc1ccc(F)c(F)c1F,-14.9%
Cc1ccccc1Cn1cc(-c2ccncc2)cc1C(=O)O,3.4%
CC(C)NC(=O)N[C@H]1CCN2C(=O)c3cc(-c4ccccc4F)ccc3NC(=O)[C@@H]2C1,1.0%[70.6 µM]
O=S(=O)(N[C@@H]1C[C@H](Cn2cc(-c3cccnc3)nn2)[C@@H](O)[C@H]1O)c1ccccc1,-0.7%
CCOc1ccccc1NC(=O)N1CCC(Cc2nc(-c3ccccc3)n[nH]2)C1 (centres undefined),-15.4%
Cc1ccc(C(=O)N2CCC3(CC2)CC(c2ccccc2)C(=O)N3C)cc1 (centres undefined),0.6%
Cc1cc(C(=O)NC2CCN(C(=O)N3CC4CC(C3)[C@H]3CCCC(=O)N3C4)CC2)nn1C (some centres undefined),-0.6%
Cc1ccc(C2Cn3cnc(C(=O)N4CCC(C(=O)NCCc5ccccc5)CC4)c3CO2)cc1 (centres undefined),4.2%
COc1ccc(-c2cc(N3CCC(NC(=O)c4ccc(C)cc4C)C3)n[nH]2)cc1 (centres undefined),-9.8%
CC(NC1CCN(c2ccc(NC(=O)C3CCCC3)cc2)CC1)c1cccs1 (centres undefined),-7.4%
Cc1nnnn1-c1ccc(C(=O)Nc2ccc3c(c2)C(=O)N2CCC[C@H]2C(=O)N3)cc1,-1.0%
O=C(C1CCOCC1)N1CCCC(CCc2ccccc2C(F)(F)F)C1 (centres undefined),0.7%
COCC(=O)Nc1ccc(-c2c(CC(C)C)nn(-c3ccccc3)c2OC(C)=O)cc1,-1.2%
Cc1ccc(C(=O)N2CCCCCCNC(=O)[C@@H]3C[C@@H](c4nc(Cc5ccccc5)no4)C[C@@H]32)cn1,-14.5%
Cc1cc(=O)n(CC(=O)Nc2ccccc2C)c(-c2ccc(F)cc2)n1,-0.3%
Cc1ccc(N2CC(c3noc(-c4cc(F)ccc4Cl)n3)CC2=O)cc1 (centres undefined),3.4%

# Other compounds follow:
SMILES,hNpr1 antagonist
CC(=O)N1CCc2nn(CC(=O)Nc3cccc(C)c3)c(=O)cc2C1,2.9%
Cc1ccc(C(=O)N2CCC3(CC2)CN(C2CCC2)CC3CO)s1 (centres undefined),1.5%
CCNC(=O)CCc1c(C)nn(-c2ccc(F)cc2)c1Oc1ccccc1,-8.6%
O=C1CC(c2noc(-c3ccccc3)n2)CN1c1ccc(F)c(Cl)c1 (centres undefined),2.9%
N#Cc1ccccc1S(=O)(=O)N[C@H]1CO[C@H]2[C@@H]1OC[C@H]2OC(=O)Nc1ccc(Oc2ccccc2)cc1,11.2µM*
c1ccc(CN2CC(CNc3cccnc3)C3(C2)CN(c2ccccc2)C3)cc1 (centres undefined),-4.5%[70.6 µM]
COc1ccc(C(=O)NC2CCCN(c3cc(-c4ccc(Cl)cc4)[nH]n3)C2)cc1OC (centres undefined),-18.8%
CCS(=O)(=O)Nc1ccc(C(=O)N2CC[C@](C)(O)[C@@H](O)C2)cc1,1.7%
Cc1ccc(Cn2c(C3CCN(C(=O)c4cccc(C(F)(F)F)c4)CC3)n[nH]c2=O)cc1,0.0%
Cc1ccc(NC(=O)N2CCC(Oc3ncccc3C(=O)N3CCOCC3)C2)c(C)c1 (centres undefined),0.3%
Cc1ccc(-c2ccc3nnc(CNC(=O)c4cnccn4)n3n2)cc1,8.2%
COc1ccc(C(=O)N2CCCn3nc(C)c(-c4ccnn4C(C)C)c32)cc1,-1.6%[70.6 µM]
Cn1ccnc1CN1CCOc2cc([S+](=O)([O-])Nc3nncs3)ccc2C1,4.6%[70.6 µM]
CCn1cc(S(=O)(=O)N2CCCN(S(=O)(=O)c3ccccc3)CCC(=O)NCC2)cn1,-3.6%
O=C(CCc1ccc2c(c1)CCO2)Nc1ccc2c(c1)C(=O)N1CCC[C@H]1C(=O)N2,1.3%
Cc1ccc(-c2nnc(C3CN(C(=O)c4sc(C)nc4C)CC34CCOCC4)o2)cc1 (centres undefined),-7.8%
O=C(C[C@@H]1CCNC[C@@H]1Cc1cc(-c2ccccc2)on1)N1CCC(Cc2ccccc2)CC1,6.8%
CNC(=O)[C@@H]1CN(S(=O)(=O)c2cc(F)ccc2F)C[C@H]1COC,1.1%
Cc1cc(CN2C[C@@H](CO)[C@H](NC(=O)C3CCC3)C2)n(C)n1,-0.8%
O=C(O)c1ccnc(-c2ccnc(NCCN3CCCCC3=O)n2)c1,-3.1%
N#Cc1cccc(C(=O)N2CCCCCCNC(=O)[C@@H]3C[C@@H](c4nc(Cc5ccccc5)no4)C[C@@H]32)c1,1.3%
CC(C)NC(=O)[C@@H]1C[C@@H](N)CN1C(=O)c1cccc(C#CC(C)(C)O)c1,8.0%
O=C(NCc1ccco1)[C@@H]1Cc2nc[nH]c2CN1Cc1cccnc1,-0.4%[70.6 µM]
O=C(CCC1CCCC1)N1CCC2(CC1)CC(N1CCOCC1)CCO2 (centres undefined),17.7%
CN1C(=O)CC[C@]2(C(=O)NCc3ccc(Cl)cc3)CCCC[C@@H]12,-3.5%

# Nothing new here: 3 of the compounds above.
SMILES,hNpr1 antagonist
O=C(C[C@@H]1CCNC[C@@H]1Cc1cc(-c2ccccc2)on1)N1CCC(Cc2ccccc2)CC1,6.8%
CNC(=O)[C@@H]1CN(S(=O)(=O)c2cc(F)ccc2F)C[C@H]1COC,1.1%
Cc1cc(CN2C[C@@H](CO)[C@H](NC(=O)C3CCC3)C2)n(C)n1,-0.8%

# Records listed so far that bear a hit mark in hNpr1 antagonist.
SMILES,hNpr1 antagonist
N#Cc1ccccc1S(=O)(=O)N[C@H]1CO[C@H]2[C@@H]1OC[C@H]2OC(=O)Nc1ccc(Oc2ccccc2)cc1,11.2µM*

# (more compounds)
SMILES,hNpr1 antagonist
Cc1noc(C)c1[S+](=O)([O-])N1CCC2(CC1)C(=O)NCN2Cc1ccc(Cl)cc1,-13.5%
CCOC(=O)C1(Cc2ccccc2C)CCCN(C(=O)c2csc(C)n2)C1 (centres undefined),-2.4%
Cc1cc(CN(C)C(=O)c2cc(CN3CCC(Cc4ccccc4)CC3)on2)n[nH]1,-0.6%
COC1C(=O)N(C2CCN(C(=O)C3CC3)CC2)C12CCOCC2 (centres undefined),1.8%
COc1ccc(OC)c(CN2CCCn3nc(C)c(-c4ccccc4C(C)C)c32)c1,-26.9%[70.6 µM]
O=C(NC1CCc2n[nH]c(=O)n2CC1)c1ccc(Br)o1 (centres undefined),8.4%
COC(=O)[C@H](Cc1ccc(OC)cc1)NC(=O)[C@H]1CN(C(C)=O)CCN1C(=O)C1CCCCC1,0.1%
COc1ccc(CN[C@H]2C[C@H]3C(=O)NC[C@@H](CCC(=O)N4CCCCC4)N3C2)cc1,-3.8%[70.6 µM]
C[C@@H](NC(=O)[C@@H]1C[C@@H](NC(=O)c2cnccn2)CCN1C(=O)c1ccco1)C(N)=O,5.0%[70.6 µM]
Cc1cc(C(=O)N[C@@H]2C[C@H](Cn3cc(CN(C)C)nn3)[C@@H](O)[C@H]2O)no1,3.2%[70.6 µM]
CCN1c2cc(C(=O)Nc3ccc4c(c3)OCCO4)ccc2C(=O)N2CCCC21 (centres undefined),-8.2%
Cn1cnc(C(=O)N2CCC3(CC2)CC(N(Cc2ccccc2)C2CC2)CCO3)c1 (centres undefined),-2.7%
COc1ccc(C2Cn3cnc(C(=O)N4CCC(C(=O)NCc5ccccn5)CC4)c3CO2)cc1 (centres undefined),-14.7%
CN(C)C(=O)N1CCCN(c2nc3ncccc3o2)CC1,-1.8%[70.6 µM]
CC(C)c1nccn1CCCNC(=O)c1ccc(-c2cccnc2)nc1,3.6%
CCNC(=O)N[C@@H]1C=C[C@@H](c2c(C)nn(-c3ccc(F)cc3)c2C)C1,20µM*
COc1ccc(Cn2c(C3CCN(C(=O)Cc4cccs4)CC3)n[nH]c2=O)cc1,-1.6%
O=C(C1CCC1)N1CCC2(CC1)CC(N(Cc1ccc(F)cc1)C1CC1)CCO2 (centres undefined),-4.2%
COCC(=O)N1C2CCCC1CC(=O)C2,-14.1%[70.6 µM]
COc1ccc(-c2nc3cc(C)ccc3cc2CN2CCCC(O)C2)cc1OC (centres undefined),4.3%
CC(C)NC(=O)N1CCC(c2nc(CCOCC3CCOCC3)no2)C1 (centres undefined),3.8%
CCC(c1cccs1)N1C(=O)[C@H]2CN(S(=O)(=O)c3ccccc3C)C[C@H]2C1=O (some centres undefined),-19.9%
Cc1nc(CC(=O)NC2CCCc3c2cnn3-c2ccc(C(C)(C)C)cc2)cs1 (centres undefined),?
Cc1cnc(C(=O)N2CCCn3nc(CCC(=O)NC(C)C)cc3C2)cn1,6.7%
O=C(Cn1nc2c(cc1=O)CCCCC2)Nc1cccc(C(F)(F)F)c1,0.0%

# New compounds follow.
SMILES,hNpr1 antagonist
C[C@H](C(=O)N1CCOCC1)C1CC[C@@]2(C)Cc3sc(CS(=O)(=O)C(C)(C)C)nc3[C@@H](C)[C@@H]2[C@H]1O (some centres undefined),-2.7%
NCC(=O)N1CCC(n2nccc2NC(=O)Nc2cccc(F)c2)CC1,5.3%
O=C(NC(C(=O)N1CCCC1)C1CCN(C(=O)c2cccs2)CC1)c1ccc(F)cc1 (centres undefined),3.1%
COc1ccc(-c2cnc3n[nH]c(-c4ccc(F)cc4C)c3n2)cc1OC,-11.2%[70.6 µM]
CCCN(CC1CCOC1)C(=O)NCc1ccco1 (centres undefined),-1.5%
O=C(NCCc1noc(-c2ccncc2)n1)C1CC1,0.6%
CC1=C[C@@H](CNc2ccccn2)[C@H](C(C)C)C[C@H]1Cc1nnc(-c2cncn2C)o1,-13.9%[70.6 µM]
COc1ccc(CNC(=O)CC[C@@H]2CNC(=O)[C@@H]3C[C@H](NC(=O)Nc4ccsc4)CN23)cc1,-0.5%
CN(CC1(CO)CCC1)C(=O)C1CCC(=O)N(CCc2ccc(Cl)cc2)C1 (centres undefined),-0.7%
COCCN1Cc2nc(-c3cccc(OC(F)(F)F)c3)ccc2OCC1=O,0.3%[70.6 µM]
CCc1sc(NC(=O)C[C@H]2NC(=O)c3ccccc3NC2=O)nc1C(=O)OC,-1.9%
O=C(c1ccoc1)N1CCCCC1c1nc(CCOCC2CCOCC2)no1 (centres undefined),-0.4%
CC(=O)Nc1ccc(C2(C(=O)NCc3ccccc3F)CCCCC2)cc1,-0.1%
CC(C)CCN1CCC2(CN[S+](=O)([O-])c3ccccc3N2)C1 (centres undefined),-26.4%[70.6 µM]
CC(C)Cc1cc(C(=O)NCc2noc(-c3c(F)cccc3F)n2)no1,-1.9%
COc1ccc(CN2C(=O)COC[C@H]2C(=O)N2CCC(C)CC2)c(OC)c1,-2.3%
COCC1CCN(C(=O)C2CCCN(C(=O)c3ccccc3)CCC(=O)NCC2)CC1 (centres undefined),5.3%
COc1ccc(OC)c(CNC(=O)C2CCN(c3cn[nH]c(=O)c3)C2)c1 (centres undefined),1.9%
CC1(C(=O)NCc2ccncc2)CCc2cnc(NCc3ccccc3)nc21 (centres undefined),4.9%[70.6 µM]
CCOC(=O)C1=C(C)N=C2SC=C(CC(=O)NCc3ccco3)N2C1c1ccccc1F (centres undefined),3.9%
COc1ccccc1C(=O)NCC1COc2ncncc2C(=O)N1Cc1ccccc1 (centres undefined),-2.3%[70.6 µM]
O=C(NCc1ccccc1)N1CCCCC1c1nc(-c2cnccn2)n[nH]1 (centres undefined),2.7%
CCN1CC(C(=O)NCc2nn(C)c3cccc(Cl)c23)CC1=O (centres undefined),-0.1%
O=C1N[C@H](CC(=O)N2CCN(Cc3ccccc3Cl)CC2)C(=O)Nc2ccccc21,-10.1%
CC1=C[C@@H](CNC(=O)c2cncnc2)[C@H](C(C)C)C[C@H]1CC(=O)NC1CCCC1,2.0%[70.6 µM]
COc1ccc(C(=O)N2CCCN(C(=O)C3CC3)C(c3ccccc3)CC(=O)NCC2)cn1 (centres undefined),0.9%

# 6 compounds already listed, ordered by the number in hNpr1 antagonist, high to low.
SMILES,hNpr1 antagonist
NCC(=O)N1CCC(n2nccc2NC(=O)Nc2cccc(F)c2)CC1,5.3%
O=C(NCc1ccccc1)N1CCCCC1c1nc(-c2cnccn2)n[nH]1 (centres undefined),2.7%
COc1ccc(C(=O)N2CCCN(C(=O)C3CC3)C(c3ccccc3)CC(=O)NCC2)cn1 (centres undefined),0.9%
COc1ccc(CNC(=O)CC[C@@H]2CNC(=O)[C@@H]3C[C@H](NC(=O)Nc4ccsc4)CN23)cc1,-0.5%
CN(CC1(CO)CCC1)C(=O)C1CCC(=O)N(CCc2ccc(Cl)cc2)C1 (centres undefined),-0.7%
CCCN(CC1CCOC1)C(=O)NCc1ccco1 (centres undefined),-1.5%
